Assay outcomes deposited in PubChem by ICCB-Longwood Screening Facility, Harvard Medical School.
BasE inh: BasE siderophore biosynthesis inhibition | 84,000 tested, 0.1% active | inhibition, % (concentration not given with the values) | purified BasE, fluorescence polarization binding displacement;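 active = both replicates above 25% with normal brightness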;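 note: 0% = negative plate control signal and 100% = positive plate control signal; stock transfer was 100 nL into about 30 µL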
LANA-nucl inh: inhibitors of KSHV LANA binding to nucleosomes; FITC-LANA1-23 / chicken nucleosome fluorescence polarization; hits give low values; z-score (concentration not given with the values); 51,000 tested, 0.3% active;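 active = both repeat wells score below -2 in polarization z-score versus plate sample wells, excluding overly bright wells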;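 note: 100 nL library stock added to about 30 µL; numbers are from one replicate; some results filed as inactive read as strong as hits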
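test system = FITC-LANA peptide and chicken nucleosomes | amount = 240 nM purified chicken nucleosomes (480 nM peptide binding sites), final | reagent = 50 nM FITC-LANA1-23 probe | medium = TEN-BT buffer, pH 7.5 | doses = single compound addition by pin transfer, 100 nL per well | timing = 10–45 min, room temperature | detection = fluorescence polarization | repeats = duplicate plates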
Numbers without * were called inactive; . = not tested or not shown. These rows are one share of the data, so the mix of outcomes need not match the whole.

SMILES	BasE inh	LANA-nucl inh
COc1ccccc1OCCNC(=O)c1ccc(S(C)(=O)=O)cc1	-0.1	.
S=c1[nH]nc(COc2ccccc2)n1/N=C/c1cccnc1	0.7	-0.48
CCOC(=O)Nc1c[nH]c2c(C)cccc2c1=O	2.9	-0.19
CCn1c(COc2cc(C)ccc2C)nnc1SC(C)C(=O)Nc1ccc2c(c1)OCO2 (stereo unspecified)	5.1	-0.049
C/C(=N\NC(N)=S)C1Cc2ccccc2C(=O)O1 (stereo unspecified)	1.1	.
CSc1nc(NC2CCCCC2)c(C#N)c(-c2ccccc2)n1	0.0	-1.7
O=C(O)c1ccc(CCO)s1	-1.7	.
CN(C)C(=O)CCc1nc2ccccc2n1-c1ccccc1	-4.1	.
Cc1sc2nc(CN3CCCC3)nc(Sc3nnnn3C3CC3)c2c1C	0.8	.
N#CCn1c(Cc2ccccc2)nc2ccccc2c1=O	-2.8	2.2
O=C(CN(Cc1ccco1)C(=O)c1nsc(Cl)c1Cl)NC1CCCCC1	0.1	-0.69
COC(=O)C1=C(C)NC(=O)CC1C(=O)Nc1ccccc1 (stereo unspecified)	0.0	-0.49
CCN(CC)C(=O)COc1ccc2ccc(=O)oc2c1	0.9	0.76
COc1cc(C(=O)CSc2cccc[n+]2[O-])cc(OC)c1OC	-1.1	.
CN(Cc1ccccc1)c1nc(-c2ccccc2)no1	0.8	-0.17
COc1ccc(C2NC(=O)N(C)C(C)=C2C(=O)Nc2ccccc2)cc1 (stereo unspecified)	-0.4	0.22
C=CCOc1cccc(C(=O)N2CCN(C)CC2)c1	2.5	-1.1
O=C(CSc1ncccn1)NN=C1CCCCCC1	0.0	2.3
Cc1c(/C=C(\C#N)C(=O)O)cc(C#N)n1C	5.3	.
Cc1ccc(CN(C)C(=O)CSc2nc(N)cc(N)n2)cc1	-1.9	.
Cc1ccc2c(c1)c1c(n2CC(O)CN2CCCCC2)C(=O)CCC1 (stereo unspecified)	-1.8	-0.69
CCOC(=O)c1ccc(S(=O)(=O)N2CCN(CN3C(=O)CCC3=O)CC2)cc1	-2.3	.
CC(O)c1cccc(NC(=O)c2cnn3c2NC(c2cccs2)CC3C(F)(F)F)c1 (stereo unspecified)	-1.0	.
O=C1CCC(=O)N1CNc1ccccn1	1.8	.
CS(=O)(=O)C1=NSC2=NC(=O)/C(=C\c3ccco3)C(=N)N21	0.5	-0.75
CCN(CC)S(=O)(=O)c1ccc(C)c(C(=O)Nc2cc(C)on2)c1	0.2	0.54
O=C(Nc1nncs1)c1ccccc1NS(=O)(=O)c1cccs1	3.3	.
CC1=CC(=C2C(=O)NC(=S)NC2=O)C=C(C)N1CCc1ccccc1	2.2	-0.87
CC(C)c1nc(N2CCN(C(=O)c3ccccc3)CC2)c(C#N)c2c1COC(C)(C)C2	3.7	0.68
CC1CC(=O)c2ccc(O)cc21 (stereo unspecified)	0.2	0.33
Nc1ccccc1-n1ccnc1	0.9	1
CCOC(=O)COc1ccc2c(C#N)c3ccccn3c2c1	.	-2.4
COc1cccc(NC(=S)N(CCC#N)/N=C/c2ccc3c(c2)OCO3)c1	0.7	.
NC(=O)CSc1nc2cc(Cl)ccc2s1	-0.8	-1
Cc1noc(C)c1C(=O)N1CCc2sccc2C1c1ccc(C(F)(F)F)cc1 (stereo unspecified)	1.7	.
CCC(=O)NCc1ccc(-c2nc3ncccc3o2)cc1	0.0	-0.43
CCc1ccc2c(COC(=O)CSCc3c(C)noc3C)cc(=O)oc2c1	0.1	.
Cc1ccsc1/C=N/NC(=O)C1C2CCCCC21 (stereo unspecified)	0.4	-0.064
Cc1nn(-c2ccccc2)c(C)c1-c1nc(-c2ccc(C(C)(C)C)cc2)no1	-0.3	-1.1
O=C1COc2ccc(C(=O)CSc3nnc(Cc4cccs4)n3Cc3ccco3)cc2N1	-0.3	.
NC(N)=NC(N)=NCc1ccccc1	3.0	.
CCN1CCCC1CNC(=O)c1ccc(N(C)S(=O)(=O)c2ccc(C)cc2)cc1 (stereo unspecified)	-1.6	.
Cc1ccccc1Cn1c2ccccc2c2cn[nH]c(=O)c21	-1.7	-0.46
CC1(C)CC(=O)C=C(NNC(=O)c2cccnc2)C1	2.1	.
O=S1(=O)CCC(Nc2ccccc2)C1 (stereo unspecified)	1.5	.
CC(=O)NC(c1ccco1)c1c(O)ccc2ccccc12 (stereo unspecified)	-0.6	-1.8
O=C(Nc1nnc(-c2ccco2)o1)C1=COCCO1	-0.8	0.96
Cc1ccc(S(=O)(=O)N(C#N)c2nc(C)cc(C)n2)cc1	0.3	0.73
Cc1cc(C(=O)CSCCCn2c(=O)[nH]c3ccccc32)c(C)n1C1CC1	-5.2	.
CCN1C(C)=C(C)S/C1=C1\SC(=S)N(C2CCCCC2)C1=O	15	2.9
CCN(C(=O)C1CCCO1)C1CCCCC1 (stereo unspecified)	0.7	-0.64
C/C(=C\C(=O)c1ccccc1)NCc1ccccc1	0.6	0.28
Cc1ccc2nc(SCC(=O)NC(N)=O)[nH]c2c1	0.3	.
COc1cccc(NC(=O)C(c2ccccc2)N2CC(C)OC(C)C2)c1 (stereo unspecified)	-2.7	.
CC1CCCN(C(=O)CSc2nc3cc(Cl)ccc3o2)C1 (stereo unspecified)	1.5	.
O=C(CC1C(=O)N2CCNC2=C1C(=O)c1ccc(Cl)cc1)Nc1ccccc1 (stereo unspecified)	1.7	.
COC(=O)/C(=C/N(C)C)Sc1cc(C)c(Cl)cc1Cl	-0.4	.
COc1cc(CN2CCSCC2)ccc1O	0.8	-0.8
OCCNC1CCCc2ccccc21 (stereo unspecified)	-1.9	-0.16
COc1ccc(C(O)C(F)(F)F)cc1 (stereo unspecified)	1.6	-0.96

Remaining list, next part
SMILES	BasE inh	LANA-nucl inh
COc1c2occc2c(OC)c2c(=O)cc(C(F)(F)C(F)(F)F)oc12	1.2	0.74
O=C(O)CCC(=O)N1N=C(c2ccccc2)CC1c1ccc2nccnc2c1 (stereo unspecified)	1.4	-0.26
COC(=O)c1c(C)oc2ccc(OC)cc12	-0.3	-1.2
Cc1nn(-c2ccccc2)c2nc(-c3ccccc3)cc(C(=O)NCc3ccco3)c12	2.0	.
O=C1CS/C(=N\N=C/c2ccccc2)N1	2.3	-0.7
CCOC(=O)CNc1ncnc2onc(-c3ccc(F)cc3)c12	-0.6	.
CCOC(=O)c1cc(C(C)(C)C)oc1CN	-1.9	-0.24
Cc1ccc(NC(=O)NC2CC(=O)N(c3ccc4c(c3)OCCO4)C2)cc1C (stereo unspecified)	-0.9	0.13
Cn1nnnc1Sc1c(-c2ccccc2)c2ccc(Cl)cc2[nH]c1=O	0.7	-0.67
CS(=O)(=O)N1Cc2ccccc2CC1C(=O)OCC(=O)c1ccc[nH]1 (stereo unspecified)	1.9	.
C/C(=N\NC(N)=O)C1CCCCC1	0.5	.
O=C(CC1OCCN(Cc2ccccc2)C1=O)Nc1ccc(F)cc1 (stereo unspecified)	0.9	0.19
O=c1nc(N2CCOCC2)ccn1Cc1ccc(Br)cc1	1.7	0.08
O=C(CCC(=O)N1CC2CCCN2c2ccccc21)NCc1ccco1 (stereo unspecified)	0.7	-0.47
CCn1c(SCC(=O)Nc2sccc2C(N)=O)nnc1-c1ccco1	5.9	.
C=CCN1C(=O)C2Cc3c([nH]c4ccccc34)C(C)N2C1=S (stereo unspecified)	-25	2.8
CN(C)c1ccc(-c2n(C)c3ccccc3[n+]2C)cc1	-4.3	.
COC(=O)c1ccc(COC(=O)c2cccs2)cc1	-1.5	0.24
O=C(COC(=O)c1ccco1)NC1CCCc2ccccc21 (stereo unspecified)	0.4	.
CC(=O)N1CCN(C(=O)Nc2c[nH]c3ccccc23)CC1	-0.2	-0.72
CCCCC(=O)n1c(=O)oc2ccc(C(C)(C)C)cc21	1.6	-0.63
CC(=O)NCc1ccco1	-2.2	.
Cc1ccc(S(=O)(=O)N2CCCCC2)cc1C(=O)c1nccn1C	-2.0	.
CCC(C)=C(C(=O)OC)C(=O)OC	-1.6	-0.2
O=C1CC(Sc2ncccc2C(=O)O)C(=O)N1 (stereo unspecified)	-0.3	1
O=C(CN1C(=O)CC(c2ccco2)Sc2ccccc21)c1ccccc1 (stereo unspecified)	-0.4	0.63
Cc1cc(C(=O)N(C)C2CCCCC2)no1	.	-0.85
CC(C)(C)C(=O)C[n+]1cccc(/C=N/O)c1	-2.3	0.23
Cc1cc(N2CCN(c3ncccn3)CC2)nc2ccc(NC(=O)c3cccc(F)c3)cc12	0.2	0.022
CC1(C)CC(NC2CCC(C#N)(c3ccccc3)CC2)CC(C)(C)N1 (stereo unspecified)	-3.5	.
O=[n+]1cc(-c2cccc(C(F)(F)F)c2)n([O-])c2c1CCCC2	2.5	-0.85
Cc1ccc(NC(=O)CONS(=O)(=O)c2ccccc2)cc1C	-0.8	.
COCCn1c(SCC(=O)NCc2ccco2)nnc1-c1cccs1	-3.4	2.2
COc1ccc(C2C(C#N)=C3N=C(N)c4ccccc4N3C3=C2C(=O)CC(C)(C)C3)cc1 (stereo unspecified)	-4.4	1.3
O=C(C1CC(=O)N(c2ccccc2)C1)N1CCN(c2ccccc2F)CC1 (stereo unspecified)	3.2	-0.71
N#CC(C#N)=Cc1cccn1-c1ccc(C(F)(F)F)cc1	1.7	-1.5
Cc1ccc2c(C)nc(NC3=NC(C(=O)Nc4ccc(Cl)c(Cl)c4)CC(=O)N3)nc2c1 (stereo unspecified)	0.3	.
O=c1cc(-c2ccccc2)sc2ccc(Cl)cc12	0.7	.
O=C(O)/C=C\C(=O)Nc1ccccc1Sc1nccc(C(F)(F)F)n1	-0.1	-0.2
O=C(NC1CCCCC1)C(c1ccncc1)N(CC1CCCO1)C(=O)C(F)(F)F (stereo unspecified)	-2.0	0.32
O=C(CC1(C(=O)O)CCCC1)NC1CC1	1.0	.
N#CCCCOc1ccccc1	0.4	.
Cc1ccc(C)n1C(CC(=O)O)c1ccc2c(c1)OCO2 (stereo unspecified)	.	-0.83
CCCCN(CC)Cc1ccc(CNC(=O)Nc2ccc(OCC)cc2)o1	-3.7	2.3
COc1ccc(C(=O)n2nc3c(c2-c2ccc(OC)cc2)COC(C)(C)C3)cc1	0.5	.
O=C(CCc1nc(-c2ccccc2)no1)N1CCOCC1	0.9	0.76
CC(C)C(OC(=O)c1cc2occc2n1C(C)C)C(=O)NCC1CCCO1 (stereo unspecified)	-1.2	0.3
CCC(=O)N=c1sc2ccccc2n1-c1ccccc1	1.5	-0.24
CC(C)(C)c1ccc2c(c1)N(CC(=O)N1CCOCC1)C(=O)CO2	2.2	0.11
CCSCc1cc(=O)[nH]c(-c2ccc(C(F)(F)F)cc2)n1	-2.9	0.083
Cc1cc(N2CCN(C(=O)OC(C)(C)C)CC2)nc(C(C)C)n1	1.4	.
Cn1c(=NC(=O)CN2C(=O)CCC2=O)sc2cccc(F)c21	1.5	-0.69
COc1ccc(C(=O)NN=C2CCCC2)cc1	4.6	-0.39
c1cncc(C2Nc3ccccc3-c3nc4ccccc4n32)c1 (stereo unspecified)	3.4	.
COc1cccc(-c2noc(-c3cc4ccccc4oc3=O)n2)c1	0.8	-0.64
O=S1(=O)CCC(n2nnnc2-c2ccc(Cl)cc2)C1 (stereo unspecified)	1.4	.
COc1ccc(CCNC(=O)CN2CCCc3ccccc32)cc1OC	0.7	.
CC(=O)n1c(/C=C2\C=c3ccccc3=NC2=O)c(O)[nH]c1=S	7.0	-1.2
O=C(O)CCn1cc(/C=N\NC(=O)c2ccncc2)c(-c2ccccc2)n1	3.0	-0.71
CSc1nc(NC(C)C)nc(N(C)C(N)=O)n1	-0.9	1.3
CC1CN(C(=O)Cc2ccc(-c3ccccc3)cc2)CC(C)O1 (stereo unspecified)	3.8	-0.49

For reference, some entries already given:
SMILES	BasE inh	LANA-nucl inh
O=C(O)/C=C\C(=O)Nc1ccccc1Sc1nccc(C(F)(F)F)n1	-0.1	-0.2
O=C(NC1CCCCC1)C(c1ccncc1)N(CC1CCCO1)C(=O)C(F)(F)F (stereo unspecified)	-2.0	0.32
O=C(CC1(C(=O)O)CCCC1)NC1CC1	1.0	.
N#CCCCOc1ccccc1	0.4	.
Cc1ccc(C)n1C(CC(=O)O)c1ccc2c(c1)OCO2 (stereo unspecified)	.	-0.83
CCCCN(CC)Cc1ccc(CNC(=O)Nc2ccc(OCC)cc2)o1	-3.7	2.3
COc1ccc(C(=O)n2nc3c(c2-c2ccc(OC)cc2)COC(C)(C)C3)cc1	0.5	.
O=C(CCc1nc(-c2ccccc2)no1)N1CCOCC1	0.9	0.76
CC(C)C(OC(=O)c1cc2occc2n1C(C)C)C(=O)NCC1CCCO1 (stereo unspecified)	-1.2	0.3
CCC(=O)N=c1sc2ccccc2n1-c1ccccc1	1.5	-0.24
CC(C)(C)c1ccc2c(c1)N(CC(=O)N1CCOCC1)C(=O)CO2	2.2	0.11
CCSCc1cc(=O)[nH]c(-c2ccc(C(F)(F)F)cc2)n1	-2.9	0.083
Cc1cc(N2CCN(C(=O)OC(C)(C)C)CC2)nc(C(C)C)n1	1.4	.
Cn1c(=NC(=O)CN2C(=O)CCC2=O)sc2cccc(F)c21	1.5	-0.69
COc1ccc(C(=O)NN=C2CCCC2)cc1	4.6	-0.39
c1cncc(C2Nc3ccccc3-c3nc4ccccc4n32)c1 (stereo unspecified)	3.4	.
COc1cccc(-c2noc(-c3cc4ccccc4oc3=O)n2)c1	0.8	-0.64
O=S1(=O)CCC(n2nnnc2-c2ccc(Cl)cc2)C1 (stereo unspecified)	1.4	.
COc1ccc(CCNC(=O)CN2CCCc3ccccc32)cc1OC	0.7	.
CC(=O)n1c(/C=C2\C=c3ccccc3=NC2=O)c(O)[nH]c1=S	7.0	-1.2

Looked up above:
O=C(CC1(C(=O)O)CCCC1)NC1CC1 in BasE inh = 1.0
Cc1cc(N2CCN(C(=O)OC(C)(C)C)CC2)nc(C(C)C)n1 in BasE inh = 1.4
